Compound activity (PubChem)
NOMO-1 viab: NOMO-1 AML cell viability reduction, primary screen, STK33 inhibitor project, CellTiter-Glo luminescence; inhibition, % (concentration not given with the values); AID 2330, 2010; NOMO-1 AML viability, 72 h; 7.5% of 37,000 active;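 active = most replicates above 80%; inconclusive = exactly half above 80%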;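 note: wells of about 30 µL received 25 nL stock; 0% = median of vehicle wells and 100% = reference inhibitor level; the first replicate is given; inactives centre near 10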
* = called active by the depositor; ? = inconclusive. A portion of the library; the hit share may differ from the screen's.

SMILES	NOMO-1 viab
O=C(CCSc1ccccc1)NC12CC3CC(CC(C3)C1)C2	46
C[C@H](CO)N1C[C@H](C)[C@@H](CN(C)Cc2ccc(Cl)c(Cl)c2)Oc2c(NC(=O)NC3CCCCC3)cccc2C1=O	40
C[C@H](CO)N1C[C@H](C)[C@H](CN(C)C)Oc2c(NC(=O)C3CC3)cccc2C1=O	-23
COc1ccc(NC(=O)N(C)C[C@H]2Oc3c(NC(=O)c4nc5ccccc5s4)cccc3C(=O)N([C@H](C)CO)C[C@H]2C)cc1	-9
Cc1noc(COc2ccccc2)c1C(=O)Sc1ccc(F)cc1F	123*
C[C@H]1CN([C@@H](C)CO)C(=O)c2cc(NC(=O)Nc3cccc4ccccc34)ccc2O[C@H]1CN(C)C(=O)Nc1ccc(F)cc1	20
CCOc1ccc(C(Nc2cccnc2)c2cc(Cl)c3cccnc3c2O)cc1 (stereo unspecified)	115*
C[C@@H]1CN([C@H](C)CO)C(=O)c2cccc(NC(=O)c3ccncc3)c2O[C@H]1CN(C)C(=O)NC1CCCCC1	7
Cc1ccc(-n2ncc(C(=O)NCc3ccccn3)c2NC(=O)c2ccco2)cc1C	-8
C[C@H]1CN([C@@H](C)CO)C(=O)Cc2cc(NC(=O)Nc3ccccc3)ccc2O[C@H]1CN(C)C	8
CCOC(=O)c1c(NC(=O)Cn2cnc3sc(-c4ccccc4)cc3c2=O)sc2c1CCCC2	-1
COc1ccc(NC(=O)C(C)N(c2ccc(Cl)cc2)S(C)(=O)=O)cc1OC (stereo unspecified)	13
C[C@@H]1CN([C@@H](C)CO)C(=O)c2cc(NC(=O)Nc3ccc(F)cc3)ccc2O[C@@H]1CN(C)C(=O)Nc1ccc2c(c1)OCO2	-4
C[C@H]1CN([C@@H](C)CO)C(=O)Cc2cc(NC(=O)c3ccncc3)ccc2O[C@H]1CN(C)Cc1ccc(Oc2ccccc2)cc1	33
C[C@@H]1CN([C@H](C)CO)C(=O)c2cccc(NC(=O)Nc3cccc4ccccc34)c2O[C@@H]1CN(C)Cc1ccncc1	15
O=C1C2=C(C(=O)N1c1ccc(Br)cc1)C(c1ccccc1)=NCCN2	0
C[C@H]1CN([C@@H](C)CO)C(=O)c2cccc(NC(=O)c3cnccn3)c2O[C@H]1CN(C)Cc1ccc(C(=O)O)cc1	8
C[C@H](CO)N1C[C@H](C)[C@H](CN(C)Cc2ccncc2)Oc2ccc(NC(=O)Cn3cnnn3)cc2C1=O	18
Cc1ccc(NC(=O)CSc2nnc(C)n2-c2ccc(Cl)cc2)c(Br)c1	34
C[C@@H]1CN([C@@H](C)CO)C(=O)c2cccc(NC(=O)Nc3ccc(C(F)(F)F)cc3)c2O[C@@H]1CN(C)Cc1ccc(Cl)c(Cl)c1	?
C[C@H](CO)N1C[C@H](C)[C@@H](CN(C)Cc2ccc(C(F)(F)F)cc2)Oc2c(NC(=O)c3cnccn3)cccc2C1=O	8
COc1ccc(C(=O)n2nc(-c3ccc(Cl)cc3)nc2NCc2ccco2)cc1OC	36
Cc1noc(C)c1NC(=O)N(C)C[C@H]1Oc2ccc(NC(=O)c3ccncc3)cc2C(=O)N([C@@H](C)CO)C[C@H]1C	13
CC1(C)OC[C@@H]([C@H](O)P(=O)(c2ccccc2)c2ccccc2)O1	2
C[C@@H]1CN([C@H](C)CO)C(=O)c2cccc(NC(=O)C3CCOCC3)c2O[C@@H]1CN(C)S(=O)(=O)c1ccc(F)cc1	-1

(next part)
SMILES	NOMO-1 viab
C[C@H](CO)N1C[C@H](C)[C@H](CN(C)S(=O)(=O)c2ccc(Cl)cc2)Oc2ccc(NC(=O)Cc3cn(C)c4ccccc34)cc2CC1=O	41
N#Cc1cccc(NC(=O)CCCN2C(=O)c3ccccc3C2=O)c1	12
O=C1c2ccccc2-c2c1c1ccccc1c(=O)n2CC1CC1	47
CC(C)NC(=O)Nc1ccc2c(c1)C(=O)N([C@@H](C)CO)C[C@@H](C)[C@@H](CN(C)S(=O)(=O)c1cccs1)O2	5
C[C@@H]1CCCCO[C@H](CN(C)C(=O)Nc2ccccc2)[C@@H](C)CN([C@H](C)CO)C(=O)c2cc(NS(C)(=O)=O)ccc2O1	-11
COc1ccc(CCNC(=O)c2nc3ccccc3c(=O)n2-n2cccc2)cc1OC	0
C[C@H]1CN([C@@H](C)CO)C(=O)c2cccc(NS(=O)(=O)c3cn(C)cn3)c2O[C@H]1CN(C)C(=O)Nc1ccc(F)cc1	21
O=C(Nc1c(Cl)cc(Cl)cc1C(=O)NCc1ccco1)c1cccc([N+](=O)[O-])c1	-6
COc1ccccc1Nc1nc(N)nc(CN2CCC(Cc3ccccc3)CC2)n1	11
COc1cccc(NC(=O)c2ccc(NCc3cccnc3)c([N+](=O)[O-])c2)c1	18
O=C(CNS(=O)(=O)c1ccccc1)Nc1ccc(Cl)c(C(F)(F)F)c1	25
COC(=O)CNC(=O)c1cn(-c2ccccc2)nc1-c1ccccc1	43
CNC[C@H]1Oc2ccc(NC(=O)CCC(F)(F)F)cc2CC(=O)N([C@@H](C)CO)C[C@@H]1C	-11
Cc1ccc(S(=O)(=O)N(C)C[C@@H]2Oc3c(NC(=O)c4ccc(-c5nccs5)cc4)cccc3C(=O)N([C@@H](C)CO)C[C@@H]2C)cc1	40
C[C@H]1CN([C@@H](C)CO)C(=O)c2cc(NC(=O)CCN3CCOCC3)ccc2O[C@@H]1CN(C)S(=O)(=O)c1ccc(F)cc1	11
C[C@H]1CN([C@@H](C)CO)C(=O)Cc2cc(NC(=O)CCN3CCOCC3)ccc2O[C@@H]1CN(C)C	0
C[C@H]1CN([C@@H](C)CO)C(=O)Cc2cc(NC(=O)Cc3cn(C)c4ccccc34)ccc2O[C@H]1CN(C)C(=O)Nc1ccc2c(c1)OCO2	-2
C[C@H]1CN([C@@H](C)CO)C(=O)c2cc(NC(=O)CCCCCC(=O)Nc3ccccc3N)ccc2O[C@@H]1CN(C)S(=O)(=O)c1cn(C)cn1	30
Cc1ccc2nc(Nc3ccccc3)nc(-c3ccccc3)c2c1	70
CCOC(=O)c1ccc(NC(=O)CN2C(=O)c3ccccc3S2(=O)=O)cc1	5
COc1ccccc1NC(=O)CSc1nc2sc(C)c(C)c2c(=O)n1-c1ccc(C)c(C)c1	35
CC1(C)CC[C@]2(C(=O)OC3OC(CO)C(O)C(O)C3O)CC[C@]3(C)C(=CCC4[C@@]5(C)CC[C@H](OC6OC(C(=O)O)C(O)C(O)C6O)C(CO)(CO)C5CC[C@]43C)[C@@H]2C1 (stereo partly specified)	120*
C[C@H]1CC[C@@H]2[C@@H](C(=O)c3c(O)c([C@]4(O)CC[C@@H](O)[C@H]5O[C@H]54)c[nH]c3=O)[C@@H](C)C=C[C@H]2C1	121*
C[C@@H]1CN([C@H](C)CO)C(=O)c2cccc(NC(=O)Nc3ccc4c(c3)OCO4)c2O[C@@H]1CN(C)S(=O)(=O)c1cn(C)cn1	-13
C[C@@H]1CN([C@@H](C)CO)C(=O)c2cccc(NC(=O)C3CC3)c2O[C@H]1CN(C)Cc1ccc(Cl)c(Cl)c1	65

2 of these compounds in another layout:
CNC[C@H]1Oc2ccc(NC(=O)CCC(F)(F)F)cc2CC(=O)N([C@@H](C)CO)C[C@@H]1C
  NOMO-1 viab = -11

Cc1ccc(S(=O)(=O)N(C)C[C@@H]2Oc3c(NC(=O)c4ccc(-c5nccs5)cc4)cccc3C(=O)N([C@@H](C)CO)C[C@@H]2C)cc1
  NOMO-1 viab = 40

(next part)
SMILES	NOMO-1 viab
Cc1cccc(OCC(=O)Nc2cccc(-c3nnc(-c4ccccc4)o3)c2)c1C	32
Cc1sc2nc3scc(CC(=O)NCCO)n3c(=O)c2c1C	31
N#CC(C#N)Cc1ccc(O)cc1	19
CC(NS(=O)(=O)c1ccccc1)C(=O)Nc1ccccc1F (stereo unspecified)	-5
COc1ccc(CN(C)C[C@H]2Oc3ccc(NC(=O)Nc4c(C)noc4C)cc3C(=O)N([C@@H](C)CO)C[C@@H]2C)cc1	-14
C[C@@H]1CN([C@H](C)CO)C(=O)Cc2cc(NS(=O)(=O)c3ccc(Cl)cc3)ccc2O[C@@H]1CN(C)S(=O)(=O)c1ccccc1	12
C[C@@H]1CN([C@@H](C)CO)C(=O)c2cc(NS(=O)(=O)c3ccc(Cl)cc3)ccc2O[C@H]1CN(C)S(=O)(=O)c1ccccc1	11
C[C@H]1CN([C@@H](C)CO)C(=O)c2cc(NC(=O)Cc3cn(C)c4ccccc34)ccc2O[C@@H]1CN(C)Cc1ccc(Oc2ccccc2)cc1	94*
COc1ccc(S(=O)(=O)Nc2cccc3c2O[C@H](CN(C)CC2CC2)[C@H](C)CN([C@@H](C)CO)C3=O)cc1	-6
C[C@@H]1CN([C@H](C)CO)C(=O)Cc2cc(NC(=O)CCC(F)(F)F)ccc2O[C@@H]1CN(C)S(=O)(=O)c1cn(C)cn1	-10
Cc1noc(C)c1NC(=O)N(C)C[C@@H]1OCCCC[C@@H](C)Oc2ccc(NS(=O)(=O)c3cn(C)cn3)cc2C(=O)N([C@H](C)CO)C[C@@H]1C	6
C[C@@H]1CCCCO[C@H](CN(C)S(=O)(=O)c2ccc(F)cc2)[C@@H](C)CN([C@H](C)CO)C(=O)c2cc(NC(=O)c3ccccc3)ccc2O1	8
CC(C)NC(=O)Nc1ccc2c(c1)C(=O)N([C@H](C)CO)C[C@@H](C)[C@H](CN(C)C(=O)Nc1ccc3c(c1)OCO3)O2	4
C[C@@H]1CN([C@H](C)CO)C(=O)Cc2cc(NS(=O)(=O)c3ccccc3)ccc2O[C@H]1CN(C)S(=O)(=O)c1cn(C)cn1	2
CC(=O)c1cc(C)ccc1OC(=O)CCN1C(=O)C2C3c4ccccc4C(c4ccccc43)C2C1=O (stereo unspecified)	17
O=S(=O)(Nc1nccs1)c1ccc(NS(=O)(=O)c2cccs2)cc1	21
COc1cc2c(cc1OC)C(c1ccc(N)cc1)=NNC(=O)C2	66
C[C@@H]1CN([C@H](C)CO)C(=O)Cc2cc(NC(=O)Nc3ccc(F)cc3)ccc2O[C@@H]1CN(C)Cc1ccccc1	52
C[C@@H]1CN([C@@H](C)CO)C(=O)c2cc(NC(=O)Cc3cn(C)c4ccccc34)ccc2O[C@H]1CN(C)Cc1ccc(Cl)c(Cl)c1	97*
CC1=CC(C)(C)Nc2ccc(OC(=O)CN3C(=O)c4cccc([N+](=O)[O-])c4C3=O)cc21	115*
COc1ccc(NC(=O)NCCc2ccccc2OC)c(OC)c1	-37
Cc1noc(C)c1S(=O)(=O)N(C)C[C@@H]1Oc2ccc(NC(=O)NC3CCCCC3)cc2CC(=O)N([C@H](C)CO)C[C@@H]1C	1
C[C@@H]1CN([C@@H](C)CO)C(=O)Cc2cc(N(C)C)ccc2O[C@@H]1CN(C)S(=O)(=O)c1ccc(F)cc1	55
CNC[C@H]1Oc2ccc(NC(=O)Nc3c(C)noc3C)cc2C(=O)N([C@H](C)CO)C[C@H]1C	14
CCc1ccc2oc(-c3ccc(C)c(NC(=O)COc4ccc(Cl)cc4)c3)nc2c1	28

Grouped by structure, the compounds so far with two or more sulfur atoms.
SMILES	NOMO-1 viab
CCOC(=O)c1c(NC(=O)Cn2cnc3sc(-c4ccccc4)cc3c2=O)sc2c1CCCC2	-1
CC(C)NC(=O)Nc1ccc2c(c1)C(=O)N([C@@H](C)CO)C[C@@H](C)[C@@H](CN(C)S(=O)(=O)c1cccs1)O2	5
Cc1ccc(S(=O)(=O)N(C)C[C@@H]2Oc3c(NC(=O)c4ccc(-c5nccs5)cc4)cccc3C(=O)N([C@@H](C)CO)C[C@@H]2C)cc1	40
COc1ccccc1NC(=O)CSc1nc2sc(C)c(C)c2c(=O)n1-c1ccc(C)c(C)c1	35
Cc1sc2nc3scc(CC(=O)NCCO)n3c(=O)c2c1C	31
C[C@@H]1CN([C@H](C)CO)C(=O)Cc2cc(NS(=O)(=O)c3ccc(Cl)cc3)ccc2O[C@@H]1CN(C)S(=O)(=O)c1ccccc1	12
C[C@@H]1CN([C@@H](C)CO)C(=O)c2cc(NS(=O)(=O)c3ccc(Cl)cc3)ccc2O[C@H]1CN(C)S(=O)(=O)c1ccccc1	11
C[C@@H]1CN([C@H](C)CO)C(=O)Cc2cc(NS(=O)(=O)c3ccccc3)ccc2O[C@H]1CN(C)S(=O)(=O)c1cn(C)cn1	2
O=S(=O)(Nc1nccs1)c1ccc(NS(=O)(=O)c2cccs2)cc1	21

Later entries:
SMILES	NOMO-1 viab
Cc1noc(C)c1NC(=O)Nc1cccc2c1O[C@H](CN(C)C(=O)NC(C)C)[C@H](C)CN([C@H](C)CO)C2=O	-3
CS(=O)(=O)N(CC(=O)Nc1ccccc1C(=O)N1CCCC1)c1cccc(F)c1	-10
COc1ccc(-c2nnc(SCCC(=O)O)n2-c2ccccc2)cc1OC	-8
C[C@H]1CN([C@@H](C)CO)C(=O)c2cccc(NC(=O)Nc3ccc(C(F)(F)F)cc3)c2O[C@@H]1CN(C)Cc1ccc(C(=O)O)cc1	-9
COc1ccc(-n2nnnc2SCC(=O)Nc2ccc(F)cc2)cc1	7
C[C@H](CO)N1C[C@H](C)[C@@H](CN(C)CC2CCCCC2)Oc2c(NC(=O)c3ccncc3)cccc2C1=O	39
Cc1cc(C)c(NC(=O)CSc2nc(-c3ccccc3)cc(=O)[nH]2)c([N+](=O)[O-])c1	-36
Cc1noc(C)c1NC(=O)N(C)C[C@@H]1Oc2c(NS(=O)(=O)c3ccc(Cl)cc3)cccc2C(=O)N([C@@H](C)CO)C[C@H]1C	-7
CNS(=O)(=O)c1c(I)ccc2ccccc12	16
COC(=O)C(C#N)C(c1cccnc1)c1c(C)[nH][nH]c1=O (stereo unspecified)	30
C[C@H](CO)N1C[C@H](C)[C@@H](CN(C)CC2CC2)Oc2c(NS(C)(=O)=O)cccc2C1=O	13
O=C(COc1cccc2ccccc12)Nc1cc(C(=O)O)cc(C(=O)O)c1	7
CCC(Sc1n[nH]c(N)n1)C(=O)Nc1ccc(C)cc1C (stereo unspecified)	12
COc1ccc(NC(=O)Nc2ccc3c(c2)CC(=O)N([C@H](C)CO)C[C@@H](C)[C@@H](CN(C)S(=O)(=O)c2ccc(C)cc2)O3)cc1	14
COC(=O)c1ccc(Cl)c(NC(=O)Cc2ccccc2[N+](=O)[O-])c1	33
C[C@@H]1CN([C@H](C)CO)C(=O)Cc2cc(NC(=O)Cn3cnnn3)ccc2O[C@H]1CN(C)S(=O)(=O)c1ccc(F)cc1	-23
C[C@@H]1CN([C@H](C)CO)C(=O)Cc2cc(NC(=O)c3ccncc3)ccc2O[C@H]1CN(C)CC1CC1	-15
